Compound activity deposited in PubChem by NMMLSC.
Autofluor counter: counter-screen for toxin protease inhibitors: compound fluorescence | fluorescence intensity (test concentration not listed) | actives 3.1% (n = 360,000) | compound autofluorescence counterscreen, microsphere flow cytometry; hits give high values;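 active = at least 3 SD above the mean of all compounds, about 16000 in these data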;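 note: 100 nL of 1 mM stock went into each well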
Starred values were filed as active, the others as inactive.

SMILES	Autofluor counter
CC(=O)Nc1cccc(-c2ccnc3c2CC(C(=O)NCc2ccc(N4CCN(C)CC4)cc2)O3)c1 (stereo unspecified)	3653
COc1cc(C(=O)N(C(C)C)C2CCCCC2)cc(OC)c1OC	3971
CCCCC(=O)N(C)c1c(CC)nc2c(OCC(=O)N(C)C)cccn12	2844
CN1CCC(C)(C(=O)Nc2cccc(Oc3ccccc3)c2)C1 (stereo unspecified)	3570
CCOC(=O)n1c2ccccc2c(=O)n1CCO	6110
O=C1CSC(=S)N1N=Cc1c[nH]c2ccc(Br)cc12	3322
C=CCn1c(SCC(=O)N2CCC(C)CC2)nc2c([nH]c3ccccc32)c1=O	3313
O=C1CCCC[C@@H](O)[C@H](O)C[C@H](c2ccccc2)O1	6469
O=C(Nc1cccc2c(=O)[nH][nH]c(=O)c12)c1ccc([N+](=O)[O-])cc1	5117
CC(C)(O)C1=C[N+](=O)CC=C1	6074
CCOc1ccc(-c2cnc3cccnn23)cc1	3206
CCc1nnc(NC(=O)c2cccc(S(=O)(=O)N3CCN(C)CC3)c2)s1	3954
O=c1[nH]cnc2c1nnn2C1OC(CO)C(O)C1O (stereo unspecified)	5698
Clc1ccc2nc(-c3ccccc3)c(Cc3ccccc3)n2c1	3929
CSC[C@H]1CN(c2ccccc2)C(=O)[C@@H]1CC(=O)Nc1ccccc1	3684
COc1ccc(S(=O)(=O)N2CCN(CC(=O)NC(C)c3cccs3)CC2)cc1 (stereo unspecified)	4185
C#CCN(C[C@@H]1[C@@H](OC(=O)NC2CC2)[C@@H](OC(=O)NC2CC2)Cn2c(=O)ccc(=O)n21)S(=O)(=O)c1ccc(C)cc1	3479
Cc1ccc(-c2ccc(C3=CC(=O)CC(C)(C)C3=O)cc2)cc1	3815
C=C(C)Cn1c2ccc(NC(=O)NCC)cc2c(=O)n1C	3863
O=C(NC1CCCCC1)C1c2ccccc2OCC(=O)N1CCc1c[nH]c2ccccc12 (stereo unspecified)	5849
O=C1NC[C@H](CCCCN2CCN(CC3CCCCC3)C(=O)C2=O)N(Cc2ccccc2)C1=O	5328
CC(C)NC(=O)C1(C)CCN1Cc1cccc(Cl)c1 (stereo unspecified)	3597
CN(C)CCCNc1nc2cc(-c3ccsc3)sc2c(=O)n1C	3046
COc1cc(C)c2sc3ccccc3c(=O)c2c1NCCN(C)C	2698
CCc1nc2ccc(C(=O)NCCOc3ccc(OC)cc3)cn2c1N(C)Cc1cccs1	3013
COCCCNC(=O)c1csc([C@H]2C[C@H](O)[C@@H](CO)O2)n1	2987
CC1(C(=O)O)CCCN(C(=O)/C=C/c2ccccc2)C1 (stereo unspecified)	3762
CC(=O)c1cccc(NC(=O)C2Cc3c(-c4cccc(C(N)=O)c4)ccnc3O2)c1 (stereo unspecified)	3778
CCCOc1ccc(F)cc1-c1cc(C(=O)NCc2cccc(Cl)c2)[nH]n1	2930
O=C(NCc1ccc(F)cc1F)[C@@H]1CCCN1C(=O)[C@@H]1CCCN1C(=O)c1cccc2ccccc12	3896
CCN(CC)c1ncnc2c1ncn2[C@H]1CN(C2CCCC2)C[C@@H](CO)O1	2853
Cn1nc(C(C)(C)C)cc1NC(=O)C1(C)CCN1C(=O)C1(c2ccccc2)CCCC1 (stereo unspecified)	3618
O=C(OCc1ccccc1)N1CCC2CC1c1ccc(-c3cccc(F)c3)cc12 (stereo unspecified)	4241
Cc1ccc(F)cc1C(=O)N1CCCCC1c1cc(C(=O)NC(C)C)no1 (stereo unspecified)	3389
CC(NC(=O)C(=O)c1cn(CC(=O)N2CCCC2)c2ccccc12)c1ccccc1 (stereo unspecified)	3352
O=C1[C@H]2[C@@H](c3ccccc3)N[C@]3(CCCN(Cc4ccc(Br)cc4)C3=O)[C@H]2C(=O)N1Cc1ccccc1	3032
O=C(Nc1cccc(C(F)(F)F)c1)Nc1nnc([C@@H]2C[C@H](O)[C@@H](CO)O2)s1	3363
CCOC(=O)C1CCCN(C(=O)c2ccc(C(F)(F)F)nc2C)CC1 (stereo unspecified)	3048
CCC(c1nnnn1-c1ccc2c(c1)OCCO2)N1CCN(c2ncccn2)CC1 (stereo unspecified)	4975
O=S1(=O)N[C@H](Cc2ccccc2)COc2cc(N3CCC[C@@H]3CO)ccc21	4274
C[C@@H]1CN([C@H](C)CO)C(=O)c2c(c3ccccc3n2C)-c2ccccc2CO[C@@H]1CN(C)C(=O)Nc1ccc2c(c1)OCO2	3938
O=CNc1cc(-c2ccccc2)cn2c(-c3ccc(F)c(Cl)c3)cnc12	3873
C[C@@H]1CN([C@@H](C)CO)S(=O)(=O)c2ccc(C#Cc3cccc(F)c3)cc2O[C@@H]1CN(C)CC1CC1	3031
NC(=O)c1csc(C2OC(CO)C(O)C2O)n1 (stereo unspecified)	6266
O=C(N[C@H]1c2ccccc2C[C@H]1O)[C@H]1O[C@@H](n2ccc(=O)[nH]c2=O)[C@H](O)[C@@H]1O	6051
CCCCCCN1C[C@@H](n2cc(COC(=O)c3ccccc3)nn2)[C@H](O)C[C@@H]1c1ccc(OC)cc1	3904
OCCNc1ncnc2c1ncn2[C@H]1CN(Cc2ccncc2)C[C@@H](CO)O1	4063
C=CCNc1ncnc2c1ncn2[C@H]1CN(CCc2ccccc2)C[C@@H](CO)O1	2979
CC(C)C[C@H]1CN(CCCC[C@@H]2CNC(=O)C(=O)N2CC2CCCCC2)C(=O)C(=O)N1CCc1ccccc1	5954
Cc1ccc(Cl)cc1-c1cc(C(=O)NCc2cc(C(F)(F)F)cc(C(F)(F)F)c2)[nH]n1	3392
Nc1ccn([C@@H]2O[C@H](C(=O)N[C@H](CO)c3ccccc3)[C@@H](O)[C@H]2O)c(=O)n1	4682
COC(=O)C1(C)CCCC2(C)C1CCC13OCC(CC21)C(O)(C(C)C)C3O (stereo unspecified)	3459
Cc1cc2nc(NC(=O)C3(C)CCCN(C(C)C)C3)[nH]c2cc1C (stereo unspecified)	4148
CC(=O)Nc1cc(-c2cccc(C(=O)NCCO)c2)cn2c(-c3ccc(F)cc3)cnc12	3514
COc1ccccc1-c1sc2ccccc2c1-c1cnc(N2CCOCC2)nc1	4255
CCCCCCN1C[C@H](n2cc(COC(=O)c3ccccc3)nn2)[C@@H](O)C[C@@H]1c1ccc(Cl)cc1	3606
NC(c1cccc(F)c1)c1nc(-c2ccc(Cl)cc2)cs1 (stereo unspecified)	3504
O=S1(=O)CC(N2CCCC2)CN1Cc1cn(Cc2cccc(Cl)c2)nn1 (stereo unspecified)	5460
CCCNC(=O)C1(C)CCCN(Cc2ccc3ccccc3c2)C1 (stereo unspecified)	4419
Cc1ccc(CN2CC(N3CCC(Cc4ccccc4)CC3)CS2(=O)=O)cc1 (stereo unspecified)	6678

Shown with each value named: entries from further up.
COc1ccccc1-c1sc2ccccc2c1-c1cnc(N2CCOCC2)nc1
- Autofluor counter = 4255

C#CCN(C[C@@H]1[C@@H](OC(=O)NC2CC2)[C@@H](OC(=O)NC2CC2)Cn2c(=O)ccc(=O)n21)S(=O)(=O)c1ccc(C)cc1
- Autofluor counter = 3479

OCCNc1ncnc2c1ncn2[C@H]1CN(Cc2ccncc2)C[C@@H](CO)O1
- Autofluor counter = 4063

Next section
SMILES	Autofluor counter
CS(=O)(=O)c1ccc(C2=C(CNC(=O)c3ccc([N+](=O)[O-])cc3)[C@H]3CC[C@@H](C2)N3CCOc2ccccc2)cc1	3600
Cc1ccccc1S(=O)(=O)NC(=O)C1(C)CCN1C(=O)Cc1cc(F)ccc1F (stereo unspecified)	2911
COc1cc(F)ccc1-c1csc(C(C)(O)c2ccccc2)n1 (stereo unspecified)	4254
CC(=O)Nc1ccc(-c2ccnc3c2CC(C)(C(=O)Nc2cccc(OC(F)(F)F)c2)O3)cc1 (stereo unspecified)	3147
CCn1cc(/C=C(\NC(=O)c2ccc(OC)cc2)C(=O)NCCCn2ccnc2)c2ccccc21	3468
COc1ccc(OC)c(-c2cc(C(=O)O)c3cc4ccccc4cc3n2)c1	4595
CC(=O)OC(C(=O)Nc1nncs1)c1ccccc1 (stereo unspecified)	6043
CC1CCC(NC(=O)CN2CCN(S(=O)(=O)c3ccc(Br)s3)CC2)CC1 (stereo unspecified)	2996
CC1(C(=O)Nc2ccc3nc[nH]c3c2)CCN1C(=O)c1ccccc1CCc1ccccc1 (stereo unspecified)	3736
COc1ccc(S(=O)(=O)N2CCOCC2)cc1NC(=O)c1c(C)noc1C	3363
CCOc1ccc(OCCC(=O)Nc2ccc(N3CCOCC3)cc2N2CCOCC2)cc1	3534
C[C@H](CO)N1C[C@H](C)[C@@H](CN(C)Cc2ccc(Cl)c(Cl)c2)OCCCC[C@H](C)Oc2ccc(NC(=O)CCC(F)(F)F)cc2C1=O	3564
CCCCN(C=O)c1c(CC)nc2ccc(C(=O)N3CCCCC3)cn12	3754
COc1ccc(NC(=O)C2(C)Cc3c(-c4cccc(NC(C)=O)c4)ccnc3O2)cn1 (stereo unspecified)	3680
Cc1ccc(NC(=O)c2sc3ncn(CC(=O)N4CCN(c5ccccn5)CC4)c(=O)c3c2C)cc1	3444
CC(C)(C)NC(=O)C1c2ccccc2OCC(=O)N1CC(F)(F)F (stereo unspecified)	3990
c1cc(-c2ccc(N3CCOCC3)cc2)n2ccnc2c1	2827
Cc1ccccc1S(=O)(=O)N1CCN(c2ccc3c(c2)C2CC3CCN2C(=O)OCc2ccccc2)CC1 (stereo unspecified)	6150
CC(=O)NC(c1ccc(F)c(F)c1)c1nc(-c2cccc(C(=O)O)c2)cs1 (stereo unspecified)	3916
COC(=O)Cn1ccnc1[N+](=O)[O-]	3114
CCCCn1nnnc1C(c1cc2ccccc2o1)N(CCN(C)C)Cc1ccccc1 (stereo unspecified)	6394
O=c1[nH][nH]c2c1[C@@H](c1ccc(F)cc1)O[C@H](C1CCCCC1)C2	6580
O=C(Nc1cc(C(F)(F)F)ccc1F)C1Cc2c(-c3ccccc3Oc3ccccc3)ccnc2O1 (stereo unspecified)	3303
CN1CCN(C2CN(Cc3cn(Cc4ccc(C(F)(F)F)cc4)nn3)S(=O)(=O)C2)CC1 (stereo unspecified)	3989

Four entries from above, reformatted:
SMILES: CCOC(=O)C1CCCN(C(=O)c2ccc(C(F)(F)F)nc2C)CC1 (stereo unspecified)
  Autofluor counter: 3048
SMILES: CCC(c1nnnn1-c1ccc2c(c1)OCCO2)N1CCN(c2ncccn2)CC1 (stereo unspecified)
  Autofluor counter: 4975
SMILES: O=S1(=O)N[C@H](Cc2ccccc2)COc2cc(N3CCC[C@@H]3CO)ccc21
  Autofluor counter: 4274
SMILES: C[C@@H]1CN([C@H](C)CO)C(=O)c2c(c3ccccc3n2C)-c2ccccc2CO[C@@H]1CN(C)C(=O)Nc1ccc2c(c1)OCO2
  Autofluor counter: 3938

The list goes on.
SMILES	Autofluor counter
N=C(N)n1ncc2c1CCCC2=O	5722
O=C(NCc1ccccn1)[C@@H]1CCCN1C(=O)[C@@H]1CCCN1C(=O)c1cccc2ccccc12	4036
CCc1nc2ccc(C(=O)Nc3ccc(OC)c(OC)c3)cn2c1N(C)C(=O)c1cccc(OC)c1	3845
Cc1cccc(C)c1-n1nnnc1C(c1ccnc2ccccc12)N1CCN(C(=O)OC(C)(C)C)CC1 (stereo unspecified)	4268
COc1ccc(CN2C[C@@H](CO)O[C@@H](n3cnc4c(N5CCN(C)CC5)ncnc43)C2)cc1	4410
CC(=O)Nc1cncc(-c2cccc(C(=O)N(C)C)c2)n1	5108
COc1ccc(C(C)=O)cc1CC1(C)C(=O)Nc2ccc(OC(F)(F)F)cc21 (stereo unspecified)	3761
COc1ccccc1-n1c(SCC(=O)Nc2ccc(Cl)cc2)nc(O)c(Cc2ccccc2)c1=O	2591
O=C(NCc1ccco1)c1[nH]c(C(F)(F)F)nc1-c1ccccc1	5875
Cc1cccc(NC(=O)CNC(=O)[C@H]2O[C@@H](n3cnc4c(N)ncnc43)[C@H](O)[C@@H]2O)c1C	5873
COCOc1cccc(CN2CCC2(C)C(=O)Nc2ccc(OC)c(OC)c2)c1 (stereo unspecified)	3860
CC(C)NC(=O)C1CCN(Cc2cccc(OCc3ccccc3)c2)CC1	3069
COc1cccc(-c2n[nH]nc2C2=CC(=O)CC(C)(C)C2)c1	3426
COc1ccc(NC(=O)c2ccc(-c3c(C)noc3C)c3ccoc23)cn1	3368
CCCCNC(=O)C1(C)CCCCCN1Cc1cccc2c(OC)cc(C(=O)OCC)cc12 (stereo unspecified)	3630
COc1ccc(NC(=O)c2cc(-c3cc(F)ccc3OCC3CCCO3)n[nH]2)cc1OC (stereo unspecified)	2848
CCc1ccc([C@H]2[C@@H]3C(=O)C[C@@H]4C(=O)N(CC)C(=O)[C@@H]4[C@@H]3CN2S(=O)(=O)c2ccc(C)cc2)cc1	5545
CN(C(=O)Nc1ccc(F)cc1)[C@H]1C[C@H]2c3[nH]c4ccccc4c3CCN2C(=O)[C@H]1CO	3823
CCn1c(O)c(N=NC(=O)CNC(=O)c2cccnc2)c2ccccc21	3628
COc1ccc(/C(O)=C2/C(=O)C(=O)N(CCCN3CCOCC3)C2c2ccc(Cl)cc2)cc1 (stereo unspecified)	5216
CC(=O)C1=CCC(c2ccccc2F)N(S(=O)(=O)c2ccc(C)cc2)C1 (stereo unspecified)	5925
COC(=O)c1ccc(Cn2c(C)c(C(=O)NCc3ccc(C#N)cc3)sc2=O)o1	5156
COC(=O)N1CCCCC1c1cc(C(=O)NCc2ccc(F)cc2)no1 (stereo unspecified)	3741
CCN(CC)CCNc1ccc(CO)c2oc3ccccc3c(=O)c12	3527
Cc1ccccc1C(=O)Nc1nnc([C@@H]2C[C@H](O)[C@@H](CO)O2)s1	3909
CCc1nc2c(OCC(=O)C(C)(C)C)cccn2c1N(C)C(=O)c1ccco1	4132

A portion of the library, so the mix of outcomes need not match the whole.
